RecA intein inh: inhibitors of M. tuberculosis RecA intein splicing; P9WHJ3; cell-free RecA intein splicing, fluorescence; 0.75% of 290,000 active; inhibition, %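 (about 9 µM by stock and volumes)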; AID 2221; in the data active means inhibition above about 30%; inconclusive means no clear call, values can overlap the other calls;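 further: 0% = vehicle wells and 100% = reference inhibitor control wells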
Target sequence (P9WHJ3 whole entry, looked up): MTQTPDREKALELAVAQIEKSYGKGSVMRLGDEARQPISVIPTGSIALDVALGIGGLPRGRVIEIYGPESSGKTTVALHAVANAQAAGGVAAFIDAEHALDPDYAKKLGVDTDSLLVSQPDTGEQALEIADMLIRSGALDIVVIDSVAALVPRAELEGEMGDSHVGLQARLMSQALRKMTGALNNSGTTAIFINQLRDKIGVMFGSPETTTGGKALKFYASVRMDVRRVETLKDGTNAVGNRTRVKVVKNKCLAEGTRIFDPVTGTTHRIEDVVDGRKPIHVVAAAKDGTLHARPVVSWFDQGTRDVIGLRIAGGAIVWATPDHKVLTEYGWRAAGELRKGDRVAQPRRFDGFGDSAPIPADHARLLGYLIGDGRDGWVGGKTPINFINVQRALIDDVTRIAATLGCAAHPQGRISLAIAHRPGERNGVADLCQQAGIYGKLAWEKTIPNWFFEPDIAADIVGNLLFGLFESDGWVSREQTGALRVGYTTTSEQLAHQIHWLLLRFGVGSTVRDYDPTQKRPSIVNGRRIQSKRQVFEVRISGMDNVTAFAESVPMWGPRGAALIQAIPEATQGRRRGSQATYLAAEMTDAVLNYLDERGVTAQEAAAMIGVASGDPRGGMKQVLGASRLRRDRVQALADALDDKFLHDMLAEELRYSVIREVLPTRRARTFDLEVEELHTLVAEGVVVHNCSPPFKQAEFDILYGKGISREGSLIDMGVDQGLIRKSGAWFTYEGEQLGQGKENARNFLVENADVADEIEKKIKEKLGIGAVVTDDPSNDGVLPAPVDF
YopH PTP inh: blocks Yersinia enterocolitica YopH tyrosine phosphatase. fluorescence Ex485/Em525. AID 898. 0.16% of 140,000 active. inhibition, %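 (about 10 µM by stock and volumes)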;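 active means inhibition of 50% or more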;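 further: controls were vehicle for no effect and minimum signal wells for full effect; inactives centre near -20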
Mtb growth: M. tuberculosis H37Rv growth inhibitors, H37Rv strain (AID 1626). M. tuberculosis H37Rv growth inhibition; higher % means a stronger effect. inhibition, % at 10 µM; hits with a dose series show IC50 in µM. 0.95% of 220,000 active;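 active means confirmed in a dose series; inconclusive means inhibition above 80% but not taken into the dose series; inactive means below 80% or under 30% at every dose of the series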;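 further: bacteria incubated seven days before Alamar blue readout; 0% = bacteria only wells and 100% = bacteria with antibiotic wells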
Arbovirus anti: arbovirus infection inhibition. AID 1251. inhibition, % at 10 µM. 0.37% of 200,000 active. arbovirus infection cell-based antiviral screen;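 active means inhibition from about 30%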;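 further: bluetongue infection of BSR cells; cell survival read as ATP light after 72 h; 0% = infected wells without compound and 100% = uninfected wells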
Mtb betalactam: beta-lactam sensitization of Mtb H37Rv; AID 434955; inhibition, % at 25 µM; M. tuberculosis H37Rv growth with meropenem, percent inhibition; hits of this screen are not shown here; 0.27% of 330,000 active;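 active means about 74% or more and at least 40 points above the plate without the antibiotic, then above 30% in a dose series; inconclusive means first-round hits that could not be retested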;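 further: growth measured after seven days incubation then overnight dye step; 0% = bacteria only wells and 100% = bacteria with antibiotic; twin plates without the antibiotic show which effects depend on it; some results filed as inactive read as strong as hits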
* marks the source's active call; other numbers are inactive results; u = inconclusive; x = not tested or not shown. Some of the compounds tested. The share of hits here may be higher or lower than overall.

SMILES	RecA intein inh	YopH PTP inh	Mtb growth	Arbovirus anti	Mtb betalactam
O=C(COc1ccccc1F)NNC(=O)c1ccc2c(=O)n3c(nc2c1)CCC3	-1.5	x	x	x	3
O=C1/C(=C/c2cccs2)SC(=S)N1N1CCOCC1	1.9	x	-7%	x	1
CCOC(=O)N1CCN(S(=O)(=O)c2ccc(C(=O)Nc3nc4ccccc4s3)cc2)CC1	4.4	-21	x	-9	1
COC(=O)[C@H](C)NC(=O)Nc1ccc(OC)c(OC)c1	1.4	6	-1%	-1	-12
COC(=O)C1=CN(Cc2ccc(OC)c(OC)c2)C=C(C(=O)OC)C1c1ccc(O)cc1	-167	x	x	x	-1
CC(=O)c1cnc2c(-c3ccccc3)c(C(F)(F)F)nn2c1C	-5.3	x	63%	-10	76
O=C(Cc1c(Cl)cccc1Cl)OCC(=O)N1CCc2ccccc2C1	7.3	-20	4%	11	-4
Cc1onc(-c2ccccc2)c1C(=O)N1CCCC(C(F)(F)F)C1 (stereo not given)	-0.7	x	x	x	-16
COc1ccc(CCn2c(N)cc(=O)[nH]c2=S)cc1OC	x	4	8%	15	-8
COc1ccc(CCNC(=O)c2coc(=O)c(Br)c2)cc1	-0.6	x	x	x	7

Reprinted at random: three entries already listed, in no set order.
SMILES	RecA intein inh	YopH PTP inh	Mtb growth	Arbovirus anti	Mtb betalactam
CC(=O)c1cnc2c(-c3ccccc3)c(C(F)(F)F)nn2c1C	-5.3	x	63%	-10	76
COc1ccc(CCNC(=O)c2coc(=O)c(Br)c2)cc1	-0.6	x	x	x	7
CCOC(=O)N1CCN(S(=O)(=O)c2ccc(C(=O)Nc3nc4ccccc4s3)cc2)CC1	4.4	-21	x	-9	1

More structures follow.
SMILES	RecA intein inh	YopH PTP inh	Mtb growth	Arbovirus anti	Mtb betalactam
Cn1nccc1NC(=O)CC(CC(=O)O)c1ccccc1 (stereo not given)	1.1	x	7%	x	17
CN(C(=O)Cn1nc(C(=O)O)c2ccccc2c1=O)c1ccccc1	-4.9	x	x	x	5
Cc1cccc(C)c1NC(=S)N(CCCN1CCOCC1)Cc1cccnc1	-0.7	x	6%	6	-3
C/C(=N/NS(=O)(=O)c1cc(C)ccc1C)c1c[nH]c2ccccc12	-0.7	x	x	x	1
CC(C)C(=O)Nc1ccc(NC(=O)c2ccc([N+](=O)[O-])cc2Cl)cc1	-0.2	-11	-4%	9	-3
CCN1C(=O)/C(=C\c2ccc3c(c2)OCO3)C(C(=O)OC)=C1C	-6.6	-34	1%	7	8
N#Cc1ccc(CSc2nnc(-c3ccncc3)n2CCc2ccccc2)cc1	5.2	-23	0%	8	-5
Cc1nnc(SCC(=O)N2CCCc3ccccc32)[nH]c1=O	-1.5	-39	-8%	2	-18
CCC(=O)Nc1sc(C(=O)Nc2ccccc2OC)c(C)c1C(=O)OC	0.5	x	-1%	0	-1
Cc1cccc(C)c1N1C(=O)CCC(C)(C)C1=O	0.5	x	x	x	-1
CC[N+](C)(CC)CCCCOc1ccc2c(c1)C(=O)c1cc(OCCCC[N+](C)(CC)CC)ccc1-2	0.9	x	u	x	99
Cc1ccc(S(=O)(=O)N2CCN(C(=O)CN3CCN(C)CC3)C2)cc1	-3.3	5	-17%	10	3
Cc1ccc(-c2noc(-c3cc(C(C)(C)C)nn3Cc3ccccc3)n2)cc1	1.4	x	3%	x	-9
CCOC(=O)c1ccc(NC(=S)NNC(=O)c2cc(-c3cccnc3)nc3ccccc23)cc1	5.2	x	x	x	12
CC(=O)Nc1ccccc1C(=O)C(=O)NCCc1ccccc1	x	x	-1%	-2	3
CC(C)(C)NS(=O)(=O)c1ccc(NS(=O)(=O)Cc2ccccc2)cc1	-0.5	-2	0%	-2	-7
Cc1cc(NC(=O)NC(=O)c2cccc(OC(F)(F)C(F)F)c2)n[nH]1	-1.4	-30	6%	-19	-1
O=C(c1ccc(Cl)s1)N1CCN(C23CC4CC(CC(C4)C2)C3)CC1	2.9	x	x	x	u
Cc1cccc(NC(=O)CC2NCCNC2=O)c1 (stereo not given)	0.2	-1	-2%	1	-10
CC(C)(C)NC(=O)C(=O)NCCC1=CCCCC1	-0.7	-30	8%	5	-3

17 structures already listed, ordered by SMILES length, high to low.
SMILES	RecA intein inh	YopH PTP inh	Mtb growth	Arbovirus anti	Mtb betalactam
CC[N+](C)(CC)CCCCOc1ccc2c(c1)C(=O)c1cc(OCCCC[N+](C)(CC)CC)ccc1-2	0.9	x	u	x	99
CCOC(=O)c1ccc(NC(=S)NNC(=O)c2cc(-c3cccnc3)nc3ccccc23)cc1	5.2	x	x	x	12
CC(C)C(=O)Nc1ccc(NC(=O)c2ccc([N+](=O)[O-])cc2Cl)cc1	-0.2	-11	-4%	9	-3
Cc1cc(NC(=O)NC(=O)c2cccc(OC(F)(F)C(F)F)c2)n[nH]1	-1.4	-30	6%	-19	-1
CC(C)(C)NS(=O)(=O)c1ccc(NS(=O)(=O)Cc2ccccc2)cc1	-0.5	-2	0%	-2	-7
C/C(=N/NS(=O)(=O)c1cc(C)ccc1C)c1c[nH]c2ccccc12	-0.7	x	x	x	1
CCN1C(=O)/C(=C\c2ccc3c(c2)OCO3)C(C(=O)OC)=C1C	-6.6	-34	1%	7	8
CCC(=O)Nc1sc(C(=O)Nc2ccccc2OC)c(C)c1C(=O)OC	0.5	x	-1%	0	-1
CN(C(=O)Cn1nc(C(=O)O)c2ccccc2c1=O)c1ccccc1	-4.9	x	x	x	5
O=C(Cc1c(Cl)cccc1Cl)OCC(=O)N1CCc2ccccc2C1	7.3	-20	4%	11	-4
COC(=O)[C@H](C)NC(=O)Nc1ccc(OC)c(OC)c1	1.4	6	-1%	-1	-12
Cc1nnc(SCC(=O)N2CCCc3ccccc32)[nH]c1=O	-1.5	-39	-8%	2	-18
COc1ccc(CCNC(=O)c2coc(=O)c(Br)c2)cc1	-0.6	x	x	x	7
Cn1nccc1NC(=O)CC(CC(=O)O)c1ccccc1 (stereo not given)	1.1	x	7%	x	17
Cc1cccc(C)c1N1C(=O)CCC(C)(C)C1=O	0.5	x	x	x	-1
CC(C)(C)NC(=O)C(=O)NCCC1=CCCCC1	-0.7	-30	8%	5	-3
Cc1cccc(NC(=O)CC2NCCNC2=O)c1 (stereo not given)	0.2	-1	-2%	1	-10

Next part
SMILES	RecA intein inh	YopH PTP inh	Mtb growth	Arbovirus anti	Mtb betalactam
COc1ccc(NS(=O)(=O)c2ccc(NC(=S)NC(=O)/C=C/c3ccccc3)cc2)nn1	0.4	-28	-11%	3	2
CCOC(=O)c1cccc(NC(=O)C2CCCO2)c1 (stereo not given)	1.4	37	4%	-6	3
O=[N+]([O-])c1ccc(O)c(P(=O)(c2ccccc2)c2ccccc2)c1	-0.3	x	x	x	-12
CSc1ccccc1NC(=O)c1noc(C)c1[N+](=O)[O-]	1.6	x	x	x	1
CC(C)OC(=O)c1cn(-c2ccccc2)nc1-c1ccc2c(c1)OCCO2	4.8	12	7%	6	12
CCc1ccc(/C=C\C(=O)N2CCCC2)cc1	0.0	x	x	x	5
CC(C)(C)NC(=O)C1CCN(c2ccc(S(=O)(=O)N3CCOCC3)cc2Cl)CC1	-3.1	x	0%	-4	-2
CCN(C(=O)COC(=O)c1ccc(C)c(S(=O)(=O)N2CCOCC2)c1)C1CCS(=O)(=O)C1 (stereo not given)	0.6	x	x	x	-11
O=C(Nc1ccc(Cl)cc1)c1ccc2c(=O)n3c(nc2c1)CCCCC3	0.1	x	x	x	3
O=C(c1ccc([N+](=O)[O-])s1)N1CCc2ccccc21	-3.8	x	x	x	2
O=C1c2sc3nc4n(c(=O)c3c2CCC1Br)CCCCC4 (stereo not given)	-4.1	-32	0%	-10	60
CCC(C)c1ccc(NC(=O)N2CCN(C(=O)C3CCCO3)CC2)cc1 (stereo not given)	0.6	x	x	x	-7
Nc1c(-c2ccccc2)c(CSc2nc3ccccc3[nH]2)nn1-c1cccc(C(=O)O)c1	0.1	x	8%	20	8
CC1(C)CC(=O)C(C(c2ccc(Br)cc2)C2C(=O)CC(C)(C)CC2=O)C(=O)C1	1.8	x	x	x	5
Cc1nn(Cc2ccccc2)c(Cl)c1C(=O)Nc1ccc(OC(F)(F)F)cc1	-1.7	-16	10%	-11	-2
Cc1ccc(N2CC(C(=O)Nc3c(C)n(C)n(-c4ccccc4)c3=O)CC2=O)cc1 (stereo not given)	-2.7	x	-13%	1	-5
C/C(=N\Nc1nncc2ccccc12)c1ccc(C(C)(C)C)cc1	1.3	x	x	x	5
NC(N)=NC(N)=Nc1ccc(SC(F)(F)F)cc1	8.6	1	12%	-35	5
CCn1nc(C(=O)Nc2cccc(C(F)(F)F)c2)c(Cl)c1Cl	0.6	-9	-8%	11	13
CCCCn1c(=O)[nH]c(=O)c2c1nc(-c1ccc(C)c([N+](=O)[O-])c1)n2CC	0.4	x	-1%	13	13
O=C(Nc1nccs1)c1cc([N+](=O)[O-])ccc1Cl	0.5	x	x	x	3
O=C(CSc1nnc(Cc2cc(=O)[nH]c(=O)[nH]2)n1-c1ccccc1)NCC1CCCO1 (stereo not given)	-1.1	-103	-4%	-5	-7
CN(Cc1nc(Cc2cccc(C(F)(F)F)c2)no1)C1CC(C)(C)NC(C)(C)C1	-3.4	x	4%	2	-5
